# VDR inh – inhibitors of human vitamin D receptor. P11473. VDR-SRC2-3 peptide fluorescence polarization, 2 h. Potency, µM, for inactives: max response, negative = inhibition, actives largely listed as inhibitors. 0.93% of 400,000 active; active = well fitted inhibition curve with a large enough effect; inconclusive = small, poorly fitted or top-dose-only effect, or another doubt; inactive = no such curve, though single readings can be large or run the other way; note: series mostly up to about 120 µM
# Target sequence (P11473 whole entry, looked up): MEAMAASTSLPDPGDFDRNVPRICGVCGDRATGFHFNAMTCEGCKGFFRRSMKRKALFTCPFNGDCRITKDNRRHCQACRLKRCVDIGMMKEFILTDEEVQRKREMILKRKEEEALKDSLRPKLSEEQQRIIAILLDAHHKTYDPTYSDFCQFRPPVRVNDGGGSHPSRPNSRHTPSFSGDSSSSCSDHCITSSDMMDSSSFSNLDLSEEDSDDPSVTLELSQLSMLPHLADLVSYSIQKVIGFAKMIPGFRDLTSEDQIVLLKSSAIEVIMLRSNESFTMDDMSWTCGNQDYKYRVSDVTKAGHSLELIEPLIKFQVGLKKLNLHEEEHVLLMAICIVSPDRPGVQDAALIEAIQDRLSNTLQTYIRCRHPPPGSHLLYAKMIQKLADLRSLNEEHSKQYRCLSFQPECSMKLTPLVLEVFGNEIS
#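 Fluorescence polarization assay measuring small-molecule disruption of VDR binding to the coregulator peptide SRC2-3. Compounds were pin-transferred (23 nl) into the reagent mix and incubated 2 h at room temperature before reading.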
# Active calls of the source: *; ? = inconclusive; & = joins results of further samples; [ ] = remark or other dose. % is set by controls: 0 for no effect and ±100 for the full control effect; potency is the fitted concentration of half-maximal effect. Only part of the results is shown, so the mix of outcomes need not match the whole.
# A first look (two entries):
structure | VDR inh
CC(=O)NC(CC(=O)Nc1cccc(S(=O)(=O)N2CCOCC2)c1)c1ccccc1 (configuration not stated) | -6%
COc1ccc(C2NCCc3c2[nH]c2ccccc32)cc1CSc1nc2ccccc2s1 (configuration not stated) | 5%

# The whole of this part, from the start:
structure | VDR inh
CC(=O)NC(CC(=O)Nc1cccc(S(=O)(=O)N2CCOCC2)c1)c1ccccc1 (configuration not stated) | -6%
COc1ccc(C2NCCc3c2[nH]c2ccccc32)cc1CSc1nc2ccccc2s1 (configuration not stated) | 5%
COc1ccccc1-n1cnnc1SCC(=O)Nc1cc(C)on1 | -7%
O=C(O)CNC(=S)N(Cc1ccccc1)Cc1cccs1 | -5%
Cc1ccc(S(=O)(=O)N2CCN(C(=O)COC(=O)CCOc3cc(C)ccc3C)CC2)c(C)c1 | -8%
CNS(=O)(=O)c1cn(CC(=O)N2CCN(c3ccc(Cl)cc3)CC2)cc1S(=O)(=O)NC | 10%
CC(C)COc1ccc(C(=O)NC(=S)Nc2ccc(CN3CCOCC3)cc2)cc1 | -13%
CC1CN(C(=O)CN2C(=O)NC3(CCCCCC3)C2=O)CC(C)O1 (configuration not stated) | -4%
CCCCCNC(=O)c1c[nH]c2ccc(S(=O)(=O)N3CCC4(CC3)OCCO4)cc2c1=O | -15%
Cc1ccc(NC(=O)CN2C(=O)COc3ccc(S(=O)(=O)N4CCCCCC4)cc32)cc1Cl | 0%
CC(C)(C)n1nc2c(c1NC(=O)c1ccc(S(=O)(=O)N3CCCCC3)cc1)CS(=O)C2 (configuration not stated) | -2%
O=C(c1cccc(S(=O)(=O)N2CCCCCC2)c1)N1CCN(c2ccccc2)CC1 | 8%
Cc1cccc(N(CC(=O)N/N=C/c2ccc(OCC(=O)NCc3ccco3)cc2)S(C)(=O)=O)c1C | 13%
COc1ccc(/C=C2\N=C(c3ccc(C)cc3)OC2=O)cc1 | ?
Cc1cccc(-c2noc(CCC(=O)Nc3ccccc3)n2)c1 | 10%
O=C(Nc1nc2c(s1)CCCC2)c1ccccc1F | 8%
CC(C)CC(CO)N1CCN(C(=O)c2ccc(Cl)cc2Cl)CCC1=O (configuration not stated) | -20%
CC1=NOC(=O)/C1=C/c1ccc(N(C)C)cc1 | -12%
CCN(CC)C(=O)CSc1nnc(-c2ccc(S(=O)(=O)NCc3ccccc3Cl)cc2)o1 | 5%
CCOc1ccc(-c2cn3c(n2)sc2cc(C(=O)NCCCN(CC)CC)ccc23)cc1 | 9%

# Next section:
structure | VDR inh
COc1ccccc1NC(=O)c1ccc2snnc2c1 | -4%
COc1ccc(NC(=O)CN2C(=O)CSC2=O)cc1 | -4%
CCCOc1ccc(C2CC(=O)Nc3cc(OC)c(OC)cc32)cc1 (configuration not stated) | -13%
O=P(O)(O)c1ccccc1OCCOCCOc1ccccc1P(=O)(O)O | 0%
COC(=O)c1sccc1S(=O)(=O)N1CCCC(N(C)CCc2ccccn2)C1 (configuration not stated) | -11%
Cc1nc(-c2cnn(-c3ccccc3)c2)c2cc(C)oc2n1 | -3%
CCOc1ccccc1CNC(=O)c1oc2c(c1C)-c1[nH]ncc1CC2 | 7%
C=CCNC(=O)CC(=O)N/N=C/c1ccc(F)cc1 | -12%
CC(NS(=O)(=O)c1ccc(F)cc1)C(=O)NCc1ccncc1 (configuration not stated) | -10%
Clc1ccc(-c2noc(CCCOc3ccccc3)n2)cc1 | -4%
O=C(CN1C(=O)c2ccccc2C1=O)Nc1ccc(S(=O)(=O)NCC2CCCO2)cc1 (configuration not stated) | 2%
CCOC(=O)c1ccc(NC(=O)N2CCN(S(C)(=O)=O)CC2)cc1 | 1%
COc1ccc(C(=O)Nc2cc(-c3ccccc3)nn2-c2ccccc2)cc1 | 12%
Cc1ccc(-c2cc3ncc4c(n3n2)-c2ccccc2OC4)cc1 | -11%
NC(=O)C1CCN(C(=O)c2ccc(NS(=O)(=O)c3ccc(Br)s3)cc2)CC1 | 10%
CN1C(=S)SC2CS(=O)(=O)CC21C (configuration not stated) | -4%
Cc1cc(NS(=O)(=O)c2ccc(NC(=O)CCCOc3ccccc3)cc2)no1 | 8%
Cc1ccc(CN2CCN(c3ccccc3Cl)CC2)o1 | 6%
COc1ccc(C(=O)Nc2nc3ccc4nc(C)sc4c3s2)cc1 | -8%
COc1ccc(-c2[nH]ncc2CN(CCO)Cc2cccs2)c(F)c1 | 0%

# Continued:
structure | VDR inh
COCCn1cnc2c1c(=O)n(CC(=O)OCC(=O)NCCCc1ccccc1)c(=O)n2Cc1ccccc1 | 8%
CC1(C)CC(=O)C(C=Nc2ccc(Cl)cn2)=C(O)C1 | -4%
CC(=O)Nc1ccc(/C=N/NC(=O)CNC(=O)c2ccccc2)cc1 | 6%
O=C(CSc1nc2[nH]ncc2c(=O)[nH]1)NCc1ccccc1Cl | -8%
CCc1ccccc1NC(=O)c1ccc2c(SCC(=O)O)c3c(nc2c1)CCC3 | -16%
CC1(C)Cc2c(C#N)c(OCC(=O)c3ccccc3)nc(-c3ccoc3)c2CO1 | ?
O=C(Nc1ncn[nH]1)c1cccc(F)c1 | -6%
O=C(c1ccc2c(c1)OCO2)C1CCCN(Cc2cn[nH]c2-c2ccccc2)C1 (configuration not stated) | 2%
COc1ccccc1N(CC(=O)NCc1ccccc1)C(=O)CCC(=O)Nc1ccccn1 | -2%
CCOC(=O)Cc1csc(N/C(=N/S(=O)(=O)c2ccc(Cl)cc2)c2ccccc2)n1 | ?
COc1ccc(CC(=O)OCC(=O)Nc2ccc(Br)cc2)cc1 | -15%
Cc1nc2c(C(=O)NCc3ccc(F)cc3)c[nH]n2c(=O)c1Cl | -17%
O=c1[nH]n(-c2cccc3cccnc23)c(=O)c2ccccc12 | 2%
Cc1ccccc1-c1cc(C(=O)NCc2ccc3c(c2)OCO3)nn1CC1CC(c2cccc([N+](=O)[O-])c2)=NO1 (configuration not stated) | -2%
Cc1ccc(CO/N=C\Cc2snc(Sc3ncc(C(F)(F)F)cc3Cl)c2C#N)cc1 | ?
COC(=O)c1ccc(C(=O)N2CCCC(N3CCN(c4ccc(F)cc4)CC3)C2)nc1 (configuration not stated) | 6%
CCN(CCn1cccn1)Cc1nc(Cc2cccc(F)c2)no1 | 6%
CCCCNC(=O)COCc1cc(-c2ccc3c(c2)OCO3)on1 | -3%
Cc1ccc(CNc2nc(N)c([N+](=O)[O-])c(NCCO)n2)cc1 | -10%
O=C1C2C(C(=O)N1/N=C/c1cc([N+](=O)[O-])ccc1O)C1C=CC2C12CC2 (configuration not stated) | 3%

# Continued.
structure | VDR inh
CC(C)C(O)(C(=O)NNc1ccccc1)C(C)C | -3%
Cc1cc(C)c2cc(CN(CC3CCCO3)C(=S)NCc3ccco3)c(=O)[nH]c2c1 (configuration not stated) | 2%
CCOc1nc(C#N)nc(N2CCOCC2)n1 | -24%
COC(=O)CNC(c1ccccc1Cl)c1cc(Br)ccc1NC(=O)CCN1CCOCC1 (configuration not stated) | 4%
Cc1ccccc1C(=O)Nc1ccccc1C(=O)NC1CC1 | 6%
CCCn1c(N)c(N(CCOC)C(=O)/C=C/c2ccc(C(=O)OC)cc2)c(=O)[nH]c1=O | -15%
Cc1oc2ccc(O)cc2c1C(=O)c1ccc(F)cc1 | 10%
Cc1ccc(S(=O)(=O)N2CCC(C(=O)N[C@H](C(=O)NCC3CCCO3)C(C)C)CC2)cc1 (some centres not stated) | 13%
COc1ccc(CN2C(=O)C(Cc3ccccc3)Nc3ncnc(N4CCCCC4)c32)cc1 (configuration not stated) | -17%
Cc1ccc(NC(=O)COC(=O)[C@H](C)NC(N)=O)c(C)c1 | -2%
Cc1ccc(NC(=O)CSCC(=O)Nc2cc(C(F)(F)F)ccc2N2CCOCC2)cc1 | 9%
CC(=O)c1ccccc1NS(=O)(=O)c1cccc2nsnc12 | -5%
COc1ccc(NC(=O)Cn2nnc(-c3ccc(CN4CCOCC4)cc3)n2)c(OC)c1 | 2%
O=C(O)c1cccc(NS(=O)(=O)c2ccc3c4c(cccc24)C(=O)N3)c1 | -3%
COc1ccc([C@H]2CC(=O)C=C(c3ccc(C)cc3)C2)cc1 | ?
Cc1ccc(S(=O)(=O)N(C)C)cc1NC(=O)C1CCN(C(=O)Nc2ccccc2)CC1 | 7%
CCOC(=O)c1c(NC(=O)COC(=O)/C=C/c2ccccc2)sc(C(=O)NC)c1C | 13%
CCOc1ccc(NC(=O)C2CCN(S(=O)(=O)c3ccc4c(c3)oc(=O)n4C)CC2)cc1 | -9%
CN(C)c1ccc(CN2CCCCC2)cc1 | 5%
COc1ccc(NC(=O)C2=C(C)Nc3ncnn3C2c2ccc(O)cc2)cc1 (configuration not stated) | 11%

# More compounds
structure | VDR inh
CN(CC(=O)NCCc1ccccc1)Cc1ccco1 | -1%
CCN(Cc1ccccc1)C(=O)C1CCN(S(=O)(=O)c2ccc3c(c2)OCCO3)CC1 | -4%
O=C1CSC(=S)N1/N=C/c1ccc(C(F)(F)F)cc1 | ?
COc1ccc(Nc2oc(-c3ccccc3Cl)nc2C#N)cc1 | -11%
Cc1ccc(-c2nnn(CC(=O)N(Cc3cccs3)C(C(=O)NCC3CCCO3)c3ccco3)n2)o1 (configuration not stated) | 7%
CNC(=O)Oc1ccc2c(c1)[C@@]1(C)CCN(C)[C@@H]1N2C | 1%&-13%
COc1ccc(N=Cc2sc(O)c3ccccc23)cc1 | ?
CCCCn1cc(S(=O)(=O)c2cccc(C)c2)c(=O)c2cc(F)c(N3CCOCC3)cc21 | 10%
COc1ccc(CNC(=O)c2ccc(-c3nc(CSc4ccccc4)c(C)o3)cc2)c(OC)c1 | 16%
Cc1ccc(Cn2c(=O)c3cccnc3n(CC(=O)Nc3cccc(C(F)(F)F)c3)c2=O)cc1 | 1%&-10%
CCOc1cccc(CC(=O)N2CCc3c([nH]c4ccccc34)C2c2ccc(SC)cc2)c1OCC (configuration not stated) | 2%
Cc1cc2oc(=O)cc(CN3CCC(C)CC3)c2c(C)c1Cl | -2%
Cc1cccc(C(=O)Nc2ccc(OCc3cc(=O)n4ccc(C)cc4n3)cc2)c1 | 3%
C/C(=N\NC(=O)CCc1c[nH]c2ccccc12)c1cccc([N+](=O)[O-])c1 | -15%
COc1ccc(Cc2nnc(NC(=O)c3ccccc3)s2)cc1OC | -5%
Cc1ccc(C2=NCCn3c2c2ccc(C(F)(F)F)cc2[n+]3[O-])cc1 | 6%
Cc1cc(NC(=O)NC(=O)c2ccccc2NC(=O)CN)ccc1Oc1ncc(Br)cn1 | 13%
CC(C)OC(=O)[C@@H]1C=C[C@H](C)[C@@H](CCCCOCc2ccccc2)O1 | 8%
CC1CCCCN1C(=O)c1ccc2c(c1)N(Cc1cccc(Cl)c1)C(=O)c1ccccc1S2=O (configuration not stated) | -1%
Cc1cnc(C(=O)Nc2ccc(C)c(S(=O)(=O)N(C)C)c2)cn1 | ?

# (listing goes on)
structure | VDR inh
CCN(C(=O)COC(=O)c1c2c(nc3ccccc13)/C(=C/c1ccccc1)CC(C)C2)C1CCS(=O)(=O)C1 (configuration not stated) | -9%
COC(=O)c1nc(NC(=O)c2ccc(C(C)(C)C)cc2)n[nH]1 | ?
CCOC(=O)c1ccc(N2C(=O)CC(N3CCC(C(=O)OCC)CC3)C2=O)cc1 (configuration not stated) | -5%
CC1CC(C)CN(C(=O)COC(=O)c2cccc(S(=O)(=O)N(C)c3ccccc3)c2)C1 (configuration not stated) | 6%
O=C(Nc1nccs1)c1cn(-c2ccccc2)nc1-c1ccccc1 | 6%
CCCn1nnnc1SCC(=O)NC1CCCC1 | -2%
COc1cccc(-c2nc(CS(=O)(=O)CC(=O)Nc3ccc(C)c(Cl)c3)c(C)o2)c1 | -6%
CC(NC(=O)COc1ccccc1)C(c1cccs1)N1CCCC1 (configuration not stated) | 6%
COc1ccc(-c2[nH]ncc2CN(C)Cc2ccccn2)c(OC)c1 | -12%
O=Cc1cc2ccccc2nc1SCc1ccc(Cl)cc1 | -5%
Clc1cnccn1 | 16%
CCOc1ccc(NC(=O)NCCN2C(C)CCCC2C)cc1 (configuration not stated) | 35%[activator]
CCN(CC)c1ccc2nc3ccc(N)cc3[n+](-c3ccccc3)c2c1 | ?
CCC(=O)N(CCC1(C(C)C)CCOC(C)(C)C1)C(C)c1cccs1 (configuration not stated) | -12%
C=CCOCC(O)Cn1c(N2CCCC2)nc2c1c(=O)n(C)c(=O)n2C (configuration not stated) | -20%
Cc1ccccc1NC1=NC2(CCCC2)N=C(N)N1 | -21%
Cc1ccc(S(=O)(=O)N[C@@H](Cc2ccccc2)C(=O)CCl)cc1 | 5.6µM*
CN(C)S(=O)(=O)c1ccc(N2CCCC2)c(C(=O)NNC(=O)c2ccccc2)c1 | -7%
O=C(Nc1ccc(Oc2ccccc2)nc1)C1CCCCN1Cc1ccco1 (configuration not stated) | -11%
CCOc1ccc(Br)cc1/C(C)=N\NC1=NCCN1 | 1%

# In the list so far, 2 have a tert-butyl group:
structure | VDR inh
CC(C)(C)n1nc2c(c1NC(=O)c1ccc(S(=O)(=O)N3CCCCC3)cc1)CS(=O)C2 (configuration not stated) | -2%
COC(=O)c1nc(NC(=O)c2ccc(C(C)(C)C)cc2)n[nH]1 | ?

# Other compounds:
structure | VDR inh
O=C(COC(=O)c1cccc(N2C(=O)c3ccccc3C2=O)c1)Nc1ccccc1 | -23%
COc1ccc(Cn2nnc(C(=O)Nc3ccc(F)cc3)c2N)cc1 | -13%
COc1cccc(NC(=O)CN(C)C(=O)c2cccc(S(=O)(=O)N3CCN(c4ccccc4)CC3)c2)c1 | 21%
COc1ccc(N2CCN(C(=O)Cc3c(C(=O)O)c(C)cn3C)CC2)cc1 | -8%
C/C(=C/C(=O)O)C(=O)Nc1cccc(C(F)(F)F)c1 | -18%
CCc1n[nH]c(=S)n1/N=C/c1ccc2c(c1)OCO2 | 14%
Fc1ccc(COc2ccc(-c3nnco3)cc2)cc1 | 8%
CCc1noc(C)c1C(=O)Nc1nc(-c2ccc(Cl)cc2Cl)c(C)s1 | -5%

# High-throughput results as filed in PubChem.
